CSC inhib: cancer stem cell inhibition; cancer stem cell-like cells viability, luminescence; inhibition, % at 7.5 µM; hit rate 1.1% among 300,000; AID 2717;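 active means mean at 75% or more and at least half the replicates too; inconclusive means mean and replicates disagree; tested in HMLE shEcad cells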;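 further: 0% = median of negative and 100% = median of positive control wells; the first replicate is given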
eIF4H inh: inhibitors of RNA binding by human eIF4H | Q15056 | eIF4H fluorescence polarization binding assay | inhibition, % at 35 µM | hit rate 0.94% among 290,000 | AID 2012;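 active means 50% or more with normal probe brightness, or confirmed in later tests; inconclusive means above 50% with abnormal brightness, or retests that disagree; inactive means below 50% or failed in later tests; about a fifth of its hits are not listed in these tables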;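 further: calls also rest on retests at 20 µM and on dose response follow-up; 0% = protein and probe with vehicle and 100% = probe without protein; strong numbers were not always called active; many hits fall short of the cut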
UUG fidelity: alters start codon recognition fidelity in yeast | activity score, % at 18.7 µM | S. cerevisiae UUG-firefly luciferase reporter, luminescence/redox ratio | hit rate 0.13% among 350,000 | AID 602363;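 active means replicate mean at a twofold rise or more, about +100% in these data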;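 further: firefly luciferase made from a UUG start codon reports start codon fidelity; reporter light over untreated wells divided by growth signal over untreated wells; some hits fall short of that in this replicate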
PABP FP inh: PABP-poly(A) binding inhibition | PABP-poly(A) RNA binding, fluorescence polarization | AID 2014 | P11940 | hit rate 1% among 290,000 | inhibition, % at 35 µM;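 active means 50% or more with normal probe brightness, or confirmed in later tests; inconclusive means above 50% with abnormal brightness, or retests that disagree; inactive means below 50% or failed in later tests; about a fifth of its hits are not listed in these tables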;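 further: calls also rest on retests at 20 µM and on dose response follow-up; controls were probe without protein and protein plus probe with vehicle; some compounds called inactive have numbers as strong as hits; many hits fall short of the cut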
Target sequence (P11940 whole entry, looked up): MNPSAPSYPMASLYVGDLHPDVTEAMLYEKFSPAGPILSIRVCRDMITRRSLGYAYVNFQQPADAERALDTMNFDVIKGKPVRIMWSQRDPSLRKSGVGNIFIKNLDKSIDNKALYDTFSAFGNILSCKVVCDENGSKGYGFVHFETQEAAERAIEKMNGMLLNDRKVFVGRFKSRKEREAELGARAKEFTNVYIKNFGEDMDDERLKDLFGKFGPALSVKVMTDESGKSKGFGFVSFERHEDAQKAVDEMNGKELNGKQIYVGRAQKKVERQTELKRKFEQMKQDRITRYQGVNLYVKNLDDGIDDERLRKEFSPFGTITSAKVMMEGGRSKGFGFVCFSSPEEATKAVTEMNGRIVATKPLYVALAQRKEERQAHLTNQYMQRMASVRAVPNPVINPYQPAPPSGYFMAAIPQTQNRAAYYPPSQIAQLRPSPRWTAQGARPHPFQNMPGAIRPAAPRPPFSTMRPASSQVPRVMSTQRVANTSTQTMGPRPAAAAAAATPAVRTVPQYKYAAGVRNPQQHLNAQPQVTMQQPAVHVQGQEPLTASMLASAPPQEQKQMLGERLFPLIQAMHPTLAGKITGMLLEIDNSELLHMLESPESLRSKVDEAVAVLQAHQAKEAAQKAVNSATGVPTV
Rce1 inh: yeast Ras-converting enzyme inhibition; yeast membranes, quenched prenylated peptide cleavage fluorescence; hit rate 0.27% among 290,000; calls only;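 active means fall in fluorescence gain of 50% or more versus controls, with final raw signal at or below 3038400; inconclusive means same 50% fall but final raw signal above 3038400; inactive means fall in fluorescence gain under 50%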;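 further: plate controls were neutral control wells for no effect and wells lacking membranes for full effect; tested at 10 µM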
HIV Env fusion: blocks HIV Env-driven cell-cell fusion | HeLa-JRFL Env/CEM21 cell fusion, luciferase | inhibition, % at 12.3 µM | hit rate 1.1% among 360,000;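 active means mean replicate inhibition score of at least 50 and every replicate individually at or above 50; inconclusive means only one of the two criteria met; inactive means mean below 50 and not all replicates reaching 50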;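 further: 0% = plate neutral controls and 100% = maraviroc near 300 nM; one replicate is shown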
MT1-MMP act inh: MT1-MMP (human) activation inhibition. P50281. GFP/RFP ratio change, % at 20 µM. hit rate 0.061% among 360,000. HT1080 RFP-PRO-GFP cells, GFP/RFP ratio fluorescence, overnight; percent of plate control window, DMSO zero;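 active means GFP/RFP ratio change of at least 30% with cell ATP level not reduced by more than half and red fluorescence within 50% of control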; further: strong numbers were not always called active
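Assay system: HT1080 cells carrying an RFP-PRO-GFP reporter | Dosing: Single dose of 20 µM compound, 1% DMSO final | Incubation: Cells overnight before dosing, compound overnight, 37 °C, 5% CO2 | Evaluation: GFP/RFP fluorescence ratio | Control set: DMSO and RFP-L50D-GFP cell wells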
eIF4H inh retest: also measured in eIF4H inh; calls as there; inhibition, %; compound at 20 µM; confirmation average;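 mean of two retest wells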
PABP FP inh retest: second read-out of PABP FP inh, no call of its own (marks repeat the call); inhibition, %; compound at 20 µM; confirmation repeats;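 mean of two retest wells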
MT1-MMP act inh RFP: second read-out of MT1-MMP act inh, no call of its own (marks repeat the call); RFP signal change, %; measured here: RFP expression control read;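 0 = vehicle wells; hits needed this value within 50% of zero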
Starred values were filed as active, the others as inactive; i = inactive; ? = inconclusive; . = no result given; & = joins results of further samples.

SMILES | CSC inhib | eIF4H inh | UUG fidelity | PABP FP inh | Rce1 inh | HIV Env fusion | MT1-MMP act inh | MT1-MMP act inh RFP | others
COc1ccc(Br)cc1CN(C)C(=O)C1=CC=CN2CCS(=O)(=O)N=C12 | -5 | . | -23 | . | . | -9 | 0 | 2
COc1cccc(NC(=O)Cn2nnc(C(=O)Nc3cc(Cl)ccc3OC)c2N)c1 | -8 | 1 | -14 | 6 | i | 2 | 1 | 4
COc1ccccc1NC(=O)/C(C#N)=C/c1ccncc1 | -6 | 2 | -5 | 4 | i | -18 | -2 | 0
C=C(C(=O)c1ccccc1)C(C)C(=C)C(=O)c1ccccc1 | 82* | 0 | . | 1 | i | -24 | -14 | -27
COc1ccc(S(=O)(=O)Nc2ccccc2C(=O)NC(C)(C)C)cc1OC | 1 | -12 | 5 | -1 | i | 0 | 0 | 6
O=C(CSc1ncnc2ccccc12)Nc1cc(S(=O)(=O)N2CCCCC2)ccc1Cl | 4 | -8 | -12 | 9 | i | -17 | -14 | -12
O=C(NC1=NCCS1)c1ccc(Cl)s1 | -1 | 2 | -14 | -7 | i | -91 | -1 | 2
CNc1nc(SC)nc(N(C#N)CC(=O)OC)n1 | . | -9 | -18 | -7 | i | . | 10 | 8
COc1ccc(-c2noc(CSc3nnc(-c4ccncc4)n3-c3ccc(F)cc3)n2)cc1OC | -10 | -5 | -7 | -4 | . | . | -1 | -6
C=C(C)C1CC=C(CN2CC(C)OC(C)C2)CC1 (stereo not drawn) | -13 | 2 | -13 | 16 | i | . | 5 | 5
Cc1cc(C)n(-c2cc(-c3ccccc3)nc(C)n2)n1 | -6 | 8 | -19 | -1 | . | . | 1 | 8
Nn1c(SCC(=O)Nc2nccs2)nncc1=O | -13 | 10 | . | -12 | i | -52 | -1 | 0
COc1cc(-c2nnc3n(CCc4ccccc4)c(=O)c4ccccc4n23)cc(OC)c1OC | 14 | -8 | . | 0 | i | 15 | -3 | -5
N#Cc1ccc(Cl)cc1NC(=O)CSc1cccc[n+]1[O-] | -3 | . | -15 | . | . | 19 | 1 | 1
CCN(CC)S(=O)(=O)c1cc(NC(=O)CCn2[nH]c(=O)ccc2=O)ccc1C | 1 | . | -6 | . | . | . | -2 | 3
COc1ncccc1-c1cnc2cccnn12 | . | . | -10 | . | . | -42 | -6 | 2
CCN(CC(=O)Nc1ccc(NC(C)=O)cc1)C(=O)COc1ccc(C(=O)c2ccccc2)cc1 | -3 | -6 | . | -5 | i | -5 | 1 | -3
O=C(Nc1ccccc1)c1cnc2n(c1=O)CCS2 | 2 | -20 | 4 | -11 | i | -6 | 3 | 6
CCOc1ccc(/C(O)=C2/C(=O)C(=O)N(c3ccccn3)C2c2ccc(Cl)cc2)c(C)c1 (stereo not drawn) | -2 | 3 | -16 | 6 | i | 6 | 1 | 1
OC(c1cccc(Cl)c1)c1nc(-c2ccc(F)c(Cl)c2)cs1 (stereo not drawn) | . | . | -6 | . | . | -7 | 4 | 0

Entries listed so far that have two or more sulfur atoms:
SMILES | CSC inhib | eIF4H inh | UUG fidelity | PABP FP inh | Rce1 inh | HIV Env fusion | MT1-MMP act inh | MT1-MMP act inh RFP | others
O=C(CSc1ncnc2ccccc12)Nc1cc(S(=O)(=O)N2CCCCC2)ccc1Cl | 4 | -8 | -12 | 9 | i | -17 | -14 | -12
O=C(NC1=NCCS1)c1ccc(Cl)s1 | -1 | 2 | -14 | -7 | i | -91 | -1 | 2
Nn1c(SCC(=O)Nc2nccs2)nncc1=O | -13 | 10 | . | -12 | i | -52 | -1 | 0

Molecules from the list above that contain a cyano group:
SMILES | CSC inhib | eIF4H inh | UUG fidelity | PABP FP inh | Rce1 inh | HIV Env fusion | MT1-MMP act inh | MT1-MMP act inh RFP | others
COc1ccccc1NC(=O)/C(C#N)=C/c1ccncc1 | -6 | 2 | -5 | 4 | i | -18 | -2 | 0
CNc1nc(SC)nc(N(C#N)CC(=O)OC)n1 | . | -9 | -18 | -7 | i | . | 10 | 8
N#Cc1ccc(Cl)cc1NC(=O)CSc1cccc[n+]1[O-] | -3 | . | -15 | . | . | 19 | 1 | 1

Later entries
SMILES | CSC inhib | eIF4H inh | UUG fidelity | PABP FP inh | Rce1 inh | HIV Env fusion | MT1-MMP act inh | MT1-MMP act inh RFP | others
CCn1cc(C(=O)OCC(=O)Nc2cc(S(=O)(=O)N(C)C)ccc2C)c(=O)c2ccc(C)nc21 | -7 | -7 | -20 | -2 | i | -30 | 10 | 0
Cc1ccc(S(=O)(=O)CCC(=O)c2ccc(O)cc2O)cc1 | 26 | 3 | 1 | -1 | i | -61 | 4 | 7
CCOc1c(CNCCNC(=O)c2nonc2N)cccc1OC | -1 | 4 | 7 | 2 | i | . | 0 | 2
COc1ccc(S(=O)(=O)Cc2ccc(C(=O)N3CCC(C(N)=O)CC3)o2)cc1 | -17 | 4 | -9 | -3 | i | -147 | -6 | 7
COC(=O)c1cc(OC)c(OC)cc1NC(=O)c1ccco1 | -8 | -6 | -5 | 8 | i | . | 7 | 4
COc1ccc(S(=O)(=O)N(C)c2ccccc2)c2cccnc12 | 23 | 8 | -12 | -1 | i | 0 | -11 | -3
CCOc1ccc2nc(SCC(=O)NCC3CCCO3)sc2c1 (stereo not drawn) | -17 | . | 4 | . | . | -10 | 4 | -5
CC(C)(C)N(Cc1ccccc1)C(=O)COC(=O)C1CCCCC1 | 1 | . | -1 | . | . | -14 | 9 | -1
CCCCC(=O)Nc1nnc(S(=O)(=O)N(CC)c2ccc(OC)cc2)s1 | -6 | -10 | -12 | 3 | i | -33 | 1 | -2
Cc1ccc(NC(=O)Cc2ccc(Cl)c(Cl)c2)cc1S(=O)(=O)N(C)C | 11 | 3 | -9 | 12 | i | 37 | 0 | -17
CCCOc1cccc(C2C(C(=O)c3cccs3)=C(O)C(=O)N2Cc2cccnc2)c1 (stereo not drawn) | -1 | -13 | -15 | 13 | i | -27 | 5 | 4
CCn1nnnc1SCC(=O)N1CCN(c2ccccc2)CC1 | -9 | 3 | -11 | 11 | i | 8 | 4 | 4
Cc1ccccc1NC(=O)C12CC3CCC1(C)C3(C)CO2 (stereo not drawn) | 3 | 6 | . | 11 | i | 16 | -4 | -1
C(=C\c1nc2ccccc2[nH]1)/c1ccccc1 | 82* | -5 | -67 | -8 | i | i | 9 | -2
Cc1c(C(=O)N2CCCCC2)oc2ccc(S(=O)(=O)N3CC(C)CC(C)C3)cc12 (stereo not drawn) | 0 | -13 | 4 | -12 | i | . | -19 | -35
Cc1ccc2oc(=O)c3cc(C(=O)N4CCN(C(=O)c5ccco5)CC4)sc3c2c1 | -3 | 6 | . | 0 | i | . | . | .
CC1CCN(C(=O)CSc2nc3ccccc3c(=O)n2Cc2ccc3c(c2)OCO3)CC1 | 12 | -2 | -20 | 4 | i | -106 | 2 | -1
O=C1[C@@H]2C(c3ccc(F)cc3)=NO[C@@H]2C(=O)N1Cc1ccccc1 | -14 | -8 | 11 | -9 | . | -21 | 0 | 4
O=C(COc1ccc(Cl)cc1)NNC(=O)C(=O)N1CCCCC1 | 4 | -7 | 3 | -5 | i | -43 | . | .
CN(C)c1ccc(/C=N/Nc2cc(N3CCOCC3)nc(N3CCOCC3)n2)cc1 | 8 | 4 | . | -10 | i | 6 | 1 | 1
CC1CC(C)CN(C(=O)CSc2nc3ccsc3c(=O)n2Cc2ccccn2)C1 (stereo not drawn) | -6 | -6 | -11 | 2 | i | -22 | -1 | -2
C[C@@H]1CN([C@@H](C)CO)S(=O)(=O)c2ccc(C#CC3CCCCC3)cc2O[C@@H]1CN(C)Cc1cccnc1 | . | . | 70&59&-1 | . | . | -36 | -26 | -17
O=C(Cc1ccc(Br)cc1)N1CCOCC1 | 7 | 2 | -7 | 1 | i | -8 | -1 | 6
O=C(CN1CCOCC1)Nc1scc2c1c(=O)oc1ccccc12 | 0 | -4 | 12 | 2 | i | -20 | 0 | -3
O=c1[nH]n(-c2ccc(Cl)cc2)c(=O)c(Cl)c1Cl | -8 | 0 | . | 14 | i | -60 | 3 | 5
CSc1ccc(S(=O)(=O)N2CCC(C(=O)Nc3ccccc3C(F)(F)F)CC2)cc1 | 1 | -3 | 2 | 1 | . | -13 | -2 | -3
CCOc1ccc(-n2c(SCC(=O)Nc3nccs3)nnc2-c2ccoc2C)cc1 | -1 | -2 | -7 | -9 | i | 5 | -6 | -1
CC(NC(=O)c1cc2ccccc2oc1=O)c1ccc(O)cc1 (stereo not drawn) | -9 | -6 | . | 10 | i | -4 | 3 | 1
Cc1ccnc(NC(=O)CCC(=O)N(CC(=O)NC2CCCCC2)Cc2cccs2)c1 | -12 | 11 | . | -1 | i | 7 | 0 | -6
CCOc1ccc(CCNC(=O)C(C)n2nc(C)n3c(cc4occc43)c2=O)cc1OCC (stereo not drawn) | . | 0 | -10 | 4 | i | . | 2 | 2
COC(=O)c1[nH]c2ccc(F)cc2c1NC(=O)CCN1CCN(Cc2ccc3c(c2)OCO3)CC1 | . | -11 | -16 | -13 | . | . | 0 | -4
Cc1ccc2c(CN3CC(C)CC(C)C3)cc(=O)oc2c1C (stereo not drawn) | 5 | -10 | -7 | 0 | i | 13 | 1 | 2
Cc1ccc(Nc2cccc(C(F)(F)F)c2)nn1 | -4 | . | . | . | i | 5 | 1 | 0
Nc1nc(N)c(Cc2ccc(Cl)cc2Cl)c(N)n1 | 10 | -1 | . | 63 | i | -15 | -4 | -13 | eIF4H inh retest=-1;PABP FP inh retest=1
CC1(C)CCN(Cc2ccccc2)C1CC#N (stereo not drawn) | -18 | -7 | -20 | 10 | i | -7 | 4 | 2
CCN(CC(=O)Nc1c(F)cccc1F)C(=O)CCNC(=O)c1ccco1 | . | . | -14 | . | . | -9 | 11 | 0
COC(=O)CNC(=O)CN1C(=O)N(c2ccccc2)C(N(O)C(=O)Nc2ccccc2)C1(C)C (stereo not drawn) | -7 | 9 | 18 | -20 | i | . | 0 | 3
COc1cc2c(cc1OC)CN(C(=O)/C=C/c1ccc(F)cc1)CC2 | -5 | 1 | -18 | 8 | i | 0 | 6 | 2
COc1ccccc1OCC(=O)O/N=C(\N)c1ccccn1 | -2 | -4 | . | 8 | i | -38 | 0 | 2
CCOC(=O)C1=C(c2ccccc2)N=c2s/c(=C\c3cc(OC)c(OC)c(OC)c3)c(=O)n2C1c1cccs1 (stereo not drawn) | -4 | ? | -22 | 80* | i | . | -4 | 1
COC(=O)c1sccc1NC(=O)/C=C/C(=O)O | 5 | 2 | . | 0 | i | -42 | 2 | 2
CCCCN(C)C(=O)C1CCN(Cc2cccc(OCc3ccccc3)c2)CC1 | 1 | 7 | -3 | 4 | i | 11 | 4 | -4
NNC(=O)c1cccc(COc2ccc(Br)cc2)c1 | 26 | 6 | -35 | 5 | i | -6 | 1 | 6
COc1ccc(C(=O)N2CCC(=O)N(C(CO)Cc3ccccc3)CC2)cc1 (stereo not drawn) | -5 | -7 | -10 | 2 | i | 20 | -3 | 0

From PubChem BioAssay

An unsorted share of the library, and some 3% of all compounds hit somewhere here.
